# Rce1 inhib: yeast Ras-converting enzyme inhibition; AID 2563; yeast membranes, quenched prenylated peptide cleavage fluorescence; calls only; Q03530; hit rate 0.27% among 290,000;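 active = fall in fluorescence gain of 50% or more versus controls, with final raw signal at or below 3038400; inconclusive = same 50% fall but final raw signal above 3038400; inactive = fall in fluorescence gain under 50%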;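 also: plate controls were neutral control wells for no effect and wells lacking membranes for full effect; tested at 10 µM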
# Target sequence (Q03530 whole entry, looked up): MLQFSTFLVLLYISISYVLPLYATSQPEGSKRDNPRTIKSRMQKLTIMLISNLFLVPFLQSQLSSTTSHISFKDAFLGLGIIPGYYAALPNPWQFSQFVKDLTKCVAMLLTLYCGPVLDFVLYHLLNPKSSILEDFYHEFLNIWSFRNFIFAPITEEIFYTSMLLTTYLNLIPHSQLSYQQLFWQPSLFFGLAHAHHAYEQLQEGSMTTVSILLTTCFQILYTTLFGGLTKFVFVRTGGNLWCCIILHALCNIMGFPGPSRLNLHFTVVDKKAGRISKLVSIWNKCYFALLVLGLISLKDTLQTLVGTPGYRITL
# PABP FP inh: PABP-poly(A) binding inhibition | P11940 | PABP-poly(A) RNA binding, fluorescence polarization | inhibition, % at 35 µM | hit rate 1% among 290,000 | AID 2014;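 active = 50% or more with normal probe brightness, or confirmed in later tests; inconclusive = above 50% with abnormal brightness, or retests that disagree; inactive = below 50% or failed in later tests; about a fifth of its hits are not listed in these tables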;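 also: calls also rest on retests at 20 µM and on dose response follow-up; controls were probe without protein and protein plus probe with vehicle; some compounds called inactive have numbers as strong as hits; many hits fall short of the cut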
# eIF4H FP inh: inhibitors of RNA binding by human eIF4H. eIF4H fluorescence polarization binding assay. inhibition, % at 35 µM. hit rate 0.94% among 290,000;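 active = 50% or more with normal probe brightness, or confirmed in later tests; inconclusive = above 50% with abnormal brightness, or retests that disagree; inactive = below 50% or failed in later tests; about a fifth of its hits are not listed in these tables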;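 also: calls also rest on retests at 20 µM and on dose response follow-up; 0% = protein and probe with vehicle and 100% = probe without protein; strong numbers were not always called active; many hits fall short of the cut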
# Env fusion inh: inhibitors of HIV Env-mediated cell fusion; inhibition, % at 12.3 µM; hit rate 1.1% among 360,000; AID 651610; HeLa-JRFL Env/CEM21 cell fusion, luciferase;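 active = mean replicate inhibition score of at least 50 and every replicate individually at or above 50; inconclusive = only one of the two criteria met; inactive = mean below 50 and not all replicates reaching 50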;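 also: 0% = plate neutral controls and 100% = maraviroc near 300 nM; one replicate is shown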
# CSC inhib: cancer stem cell inhibition. cancer stem cell-like cells viability, luminescence. inhibition, % at 7.5 µM. hit rate 1.1% among 300,000. AID 2717;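 active = mean at 75% or more and at least half the replicates too; inconclusive = mean and replicates disagree; tested in HMLE shEcad cells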;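 also: 0% = median of negative and 100% = median of positive control wells; the first replicate is given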
# MT1-MMP act inh: blocks activation of human MT1-MMP; GFP/RFP ratio change, % at 20 µM; HT1080 RFP-PRO-GFP cells, GFP/RFP ratio fluorescence, overnight; percent of plate control window, DMSO zero; hit rate 0.061% among 360,000;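 active = GFP/RFP ratio change of at least 30% with cell ATP level not reduced by more than half and red fluorescence within 50% of control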; also: strong numbers were not always called active
#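 Assay system: HT1080 RFP-PRO-GFP cells. Benchmarks: DMSO vehicle wells and RFP-L50D-GFP reporter cell wells. Times: overnight cell settling, then overnight compound exposure, 37 °C, 5% CO2. Compound: 20 µM single dose, 1% DMSO. Read-out basis: GFP/RFP fluorescence ratio.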
# Yeast UUG start: alters start codon recognition fidelity in yeast | S. cerevisiae UUG-firefly luciferase reporter, luminescence/redox ratio | activity score, % at 18.7 µM | hit rate 0.13% among 350,000;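 active = replicate mean at a twofold rise or more, about +100% in these data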;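 also: firefly luciferase made from a UUG start codon reports start codon fidelity; reporter light over untreated wells divided by growth signal over untreated wells; some hits fall short of that in this replicate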
# eIF4H FP inh retest: second read-out of eIF4H FP inh, no call of its own (marks repeat the call); inhibition, %; compound at 20 µM; confirmation average;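 mean of two retest wells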
# PABP FP inh retest: further read-out of PABP FP inh, marked with its call; inhibition, %; compound at 20 µM; confirmation repeats;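 mean of two retest wells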
# MT1-MMP act inh RFP: also measured in MT1-MMP act inh; calls as there; RFP signal change, %; measured here: RFP expression control read;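 0 = vehicle wells; hits needed this value within 50% of zero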
# The depositor's hits bear a star; i = inactive; ? = inconclusive; . = not tested or not shown.
SMILES,Rce1 inhib,PABP FP inh,eIF4H FP inh,Env fusion inh,CSC inhib,MT1-MMP act inh,MT1-MMP act inh RFP,Yeast UUG start,others
CCCCCCCN1CCC(=O)N(CCO)CC1,i,-10.7,-6.3,14.6,17.6,-0.6,3.8,-9.6,
COc1cccc(CN(C)C(=O)C2CCCN(C(=O)c3ccc(Cl)cc3)C2)c1 (configuration not stated),.,.,.,9.5,.,-4.0,-3.7,10.0,
Cn1cc(C(=O)O)c(-c2ccc3c(c2)OCCCO3)n1,.,6.2,-6.1,-19.6,-6.4,-0.2,0.3,-13.0,
COc1cnn(-c2ccc(F)cc2)c(=O)c1Br,i,-1.6,-0.3,15.9,7.3,1.3,4.0,.,
CN(C)S(=O)(=O)c1cccc(NC(=O)COC(=O)c2cc3ccccc3oc2=O)c1,.,3.8,-7.9,-31.1,3.7,1.5,-1.0,.,
COc1cccc(NC(=O)CN(C)CC(=O)Nc2ccc(Cl)cc2[N+](=O)[O-])c1,i,-5.2,-3.8,24.3,-7.6,-5.3,-5.7,16.3,
Nc1nnc(SCc2nnc(-c3ccccc3)o2)s1,i,12.6,-8.6,-2.5,-4.3,2.9,3.1,.,
Cc1cc(C)nc(N2CCN(c3ncnc4c3cnn4Cc3ccc(Cl)cc3Cl)CC2)n1,i,-8.8,-12.0,.,12.4,.,.,.,
CC(C)c1ccc(NC2CCCN(C(=O)CCc3cn[nH]c3)C2)cc1 (configuration not stated),i,-12.0,-5.9,4.8,-8.5,2.5,-1.2,-14.6,
O=C(CN1CCN(c2ccccc2F)CC1)c1c[nH]c2ccccc12,i,-2.7,0.2,.,0.3,-5.4,-1.2,21.0,
Cc1ccc(C(=O)Nc2ccccc2Sc2ccccc2)cc1,i,-1.3,4.2,13.4,.,-6.4,2.7,.,
N/C(Cc1ccc([N+](=O)[O-])cc1)=N\OC(=O)c1ccc(Br)cc1,i,?,2.4,.,4.1,1.2,2.1,-16.2,
Cc1nc2c(Br)c(C)nn2c2c1CCC2,i,3.3,4.6,3.5,-13.7,0.6,7.1,.,
Cc1cc(OCC(=O)NCc2ccccn2)cc(C)c1Br,i,5.4,-12.4,.,-7.9,2.1,2.5,-26.3,
Cc1sc2ncn(CC(=O)NCC(=O)N(C)C3CCCCC3)c(=O)c2c1C,i,2.9,-4.3,37.5,.,4.4,5.8,.,
COc1ccccc1N(CC(=O)NC1CCCC1)C(=O)c1oc(C(C)(C)C)cc1C,i,-1.0,2.5,14.0,3.7,-3.6,-5.2,.,
O=C(NCCCN1CCCCC1)c1ccc2c(c1)NC(=O)C(N1CCOCC1)S2 (configuration not stated),i,0.5,-9.5,-52.5,-3.8,-6.2,-4.7,6.3,
NS(=O)(=O)c1ccc(CCNS(=O)(=O)c2ccc(Cl)s2)cc1,.,.,.,.,-14.4,5.1,2.1,5.1,
O=c1ccn(Cc2ccccc2)c2ccccc12,i,1.7,1.0,-156.1,-2.6,0.9,-19.2,-15.4,
O=c1c2cc(Cl)ccc2[nH]c(=S)n1Cc1ccco1,i,9.4,9.5,6.2,.,2.2,-2.2,-24.0,
CCOc1cccc(=O)c2c(C)n(CC(=O)c3ccccc3)c(C)c12,i,38.9,52.5,36.0,-20.3,-9.7,4.7,.,eIF4H FP inh retest=17.2;PABP FP inh retest=11.0
Cn1nccc1/C=N\NC(=O)c1ccc(Cl)cc1,i,-6.9,0.1,-91.5,0.7,2.5,4.4,-14.0,
O=C(NCc1ccco1)c1cccc(S(=O)(=O)N2CCCCC2)c1,i,5.2,7.2,.,-9.6,0.2,0.1,-15.7,
COc1ccc(C(=O)N2CCN(CC(=O)N3CCOCC3)CC2)cc1,i,2.5,5.8,-323.0,-10.2,3.2,4.7,-13.2,

# An excerpt from above in order of number of heavy atoms, smallest number first:
SMILES,Rce1 inhib,PABP FP inh,eIF4H FP inh,Env fusion inh,CSC inhib,MT1-MMP act inh,MT1-MMP act inh RFP,Yeast UUG start,others
Cc1nc2c(Br)c(C)nn2c2c1CCC2,i,3.3,4.6,3.5,-13.7,0.6,7.1,.,
O=c1c2cc(Cl)ccc2[nH]c(=S)n1Cc1ccco1,i,9.4,9.5,6.2,.,2.2,-2.2,-24.0,
CCOc1cccc(=O)c2c(C)n(CC(=O)c3ccccc3)c(C)c12,i,38.9,52.5,36.0,-20.3,-9.7,4.7,.,eIF4H FP inh retest=17.2;PABP FP inh retest=11.0

# More structures follow.
SMILES,Rce1 inhib,PABP FP inh,eIF4H FP inh,Env fusion inh,CSC inhib,MT1-MMP act inh,MT1-MMP act inh RFP,Yeast UUG start,others
O=C(NC1CC1)C1CCN(C2CCN(C(=O)c3c(F)cccc3Cl)CC2)CC1,i,-5.9,3.3,4.2,8.5,2.6,9.2,6.1,
COc1ccc(OC)c(CNC(=O)CCc2nc(-c3cccs3)no2)c1,i,13.3,0.5,-14.3,-15.9,-2.5,3.5,-8.5,
Cc1ccc(S(=O)(=O)N2CCOC2CNC(=O)C(=O)NCCCN2CCOCC2)cc1 (configuration not stated),i,-10.7,6.8,-16.0,1.6,3.2,2.3,0.4,
COc1ccc(CCNC(=O)c2n[nH]c3ccccc23)cc1,i,2.9,-3.0,-7.5,-10.1,1.8,-4.7,-9.8,
COc1cc(C(=O)Nc2ccc(C(C)=O)cc2)c(Br)c(OC)c1OC,i,-0.2,-2.5,-18.9,-7.6,4.9,2.0,-33.7,
CCCn1c(-c2cccc(F)c2)nc2c1c(=O)[nH]c(=O)n2Cc1ccccc1,i,1.8,6.3,-16.5,0.7,3.3,2.7,-8.5,
CCc1ccc(NC(=O)Cn2c(=O)n(CCCC(=O)NCc3ccco3)c(=O)c3ccccc32)cc1,i,-5.1,5.4,.,0.7,0.7,-1.2,-1.7,
CC1(C)Cc2c(cnn2-c2ccc(F)cc2)C(NC(=O)CCN2CCCCC2=O)C1 (configuration not stated),i,4.1,-5.2,.,1.1,-3.1,-2.4,9.8,
CCOC(=O)c1ccc(NCC(O)COc2ccccc2)cc1 (configuration not stated),i,1.4,-1.4,.,2.2,3.1,1.6,3.9,
COc1ccc(C2C(C(=O)c3ccco3)=C(O)C(=O)N2CCc2ccccc2)cc1OC (configuration not stated),.,-0.7,-17.1,6.5,.,2.9,2.9,-12.2,
O=C(NN1C(=O)c2ccc3c4c(ccc(c24)C1=O)CC3)c1ccc(Br)cc1,i,1.3,-6.0,-29.0,19.1,2.4,-0.5,-10.9,
CCC(=O)Nc1ccc2nc3c(=O)[nH]c(=S)[nH]c3nc2c1,i,97.7*,112.1*,-19.5,-3.1,1.6,2.4,-13.6,eIF4H FP inh retest=104.1*;PABP FP inh retest=85.9*
Cc1ccc(Nc2ncnc(-n3cccc3)n2)cc1Cl,i,-4.9,-8.6,-123.9,-6.3,-7.9,-9.1,.,
CC(NC(=O)C(=O)NCCc1c[nH]c2ccccc12)c1ccccc1 (configuration not stated),i,7.1,-14.0,11.1,3.4,1.0,0.8,-11.6,
COc1cccc(C2c3[nH]c4ccccc4c3C[C@H]3C(=O)N(c4ccccc4C(=O)N4CCC[C@H]4C(=O)O)C(=O)N23)c1 (some centres not stated),i,-0.6,-5.3,.,-0.8,-3.4,0.2,6.6,
COc1ccc(OC)c(NC(=O)/C=C/c2ccccc2[N+](=O)[O-])c1,i,11.3,3.8,15.4,-6.1,6.1,3.7,-4.1,
CCOC(=O)c1ccc(Nc2nc(-c3cccnc3)nc3ccccc23)cc1,i,-21.5,-17.4,.,-9.7,-10.1,-3.4,-31.6,
COCc1ccccc1Cn1cnc2c1c(=O)n(C)c(=O)n2C,i,1.5,-14.0,.,-1.7,6.4,1.4,3.7,
COC(=O)C1=C(C)N(c2ccccc2)C(=S)NC1c1ccccc1C(F)(F)F (configuration not stated),i,3.2,-4.3,8.7,-4.9,-2.3,-1.3,-11.0,
Cc1cc(C)nc(SCc2nnc(SCC(=O)Nc3ncc(C)s3)n2Cc2ccco2)n1,i,4.4,9.5,-29.8,.,-2.0,-7.1,-15.3,
OC[C@@H]1CN(Cc2ccc(-c3ccccc3)cc2)C[C@H](n2cnc3c(N4CCOCC4)ncnc32)O1,.,.,.,-0.4,.,-1.8,-15.5,19.6,
OC(CN1CCCCCC1)CN(c1ccccc1)c1ccccc1 (configuration not stated),i,-0.9,-3.0,-1.8,-5.0,-0.1,-4.1,-18.0,
CC1(C(=O)NS(=O)(=O)c2ccccc2)CCN1C(=O)c1ccccc1 (configuration not stated),.,.,.,-5.9,.,2.5,4.8,-7.5,
CN1CCN(CCC(=O)Nc2ccccc2)CC1,i,-5.5,-2.0,-0.1,-10.5,-0.3,0.1,-11.6,
N#Cc1ccsc1NC(=O)COC(=O)c1ccc(NC(N)=O)cc1,i,?,?,-101.1,-24.9,0.4,3.6,-7.5,
COc1ccc(C(=O)OC(C)CN2CCOCC2)cc1OC (configuration not stated),i,14.4,0.7,.,-16.6,1.3,8.2,-6.5,
Cc1occc1-c1nnc(SCCCC(=O)c2ccc(F)cc2)n1C,i,5.6,4.4,.,0.3,4.6,0.6,-10.3,
CCOc1c(C)cnc2c1c(=O)n(Cc1ccccc1Cl)c(=O)n2C,i,-1.7,9.7,20.1,-5.9,-1.3,0.0,-2.5,
Cc1cccc(C)c1NC(=O)CNCC(=O)Nc1c(C)cccc1C,i,3.0,-4.2,4.4,-5.8,-1.4,1.5,2.2,
CC(=O)c1ccc(Nc2nc(C)cc(C)n2)cc1,i,0.7,-4.4,-40.7,-7.2,0.4,-2.3,-12.4,
COc1ccc(CN2CCCC(CO)(Cc3ccc(F)cc3)C2)c(OC)c1OC (configuration not stated),i,0.6,-3.8,22.2,21.7,-3.1,1.9,-17.7,
O=[N+]([O-])c1ccc(Cl)c(-c2ccc(/C=N/c3c(-c4ccco4)nc4ccccn34)o2)c1,i,73.9*,?,-120.7,-0.6,-7.8,2.6,-7.8,PABP FP inh retest=113.1*
COc1cccc2oc3ccc(C#CC4(N)CCCCC4)cc3c(=O)c12,i,-5.4,0.2,16.4,30.1,3.7,3.3,-7.5,
O=C(NCC1CCCO1)c1ccccc1 (configuration not stated),i,1.6,0.7,-55.0,7.9,11.8,8.1,-12.8,
CC(Oc1ccc(-c2ccccc2)c(F)c1)c1ccn(S(=O)(=O)c2cccc3ccccc23)n1 (configuration not stated),i,10.5,-3.7,58.1*,32.2,-6.8,-9.3,-29.0,
O=C(OCC(=O)N1CCc2ccccc21)c1cncc(Br)c1,i,-0.8,0.2,-13.0,-1.8,-3.0,-1.6,-7.5,
COCC(C)NS(=O)(=O)c1ccc(C(=O)NC(Cc2ccccc2)c2ccccc2)cc1 (configuration not stated),i,14.0,-1.4,-4.2,11.0,0.1,0.1,-0.8,
COc1cc([N+](=O)[O-])cc2cc(C(=O)N3CCN=C3c3ccccc3)c(=O)oc12,i,6.4,-1.2,1.7,-7.3,7.7,-1.2,-13.2,
Nc1cccc(C(=O)N/N=C/c2ccsc2)c1,i,5.5*,84.3*,1.7,-9.2,9.7,6.9,.,eIF4H FP inh retest=74.2*;PABP FP inh retest=67.4*
COc1ccc(S(=O)(=O)N2CCCC(C(=O)N3CCOCC3)C2)cc1Cl (configuration not stated),i,-5.5,5.3,-2.7,-6.3,-2.3,-0.8,-12.0,
CCOc1cccc2cc(C(=O)OCC(=O)Nc3c(C)cccc3CC)c(=O)oc12,.,.,.,19.0,.,-2.2,2.3,-9.1,

# Screens (PubChem BioAssay)
